# PV pol inh – inhibitors of poliovirus RNA polymerase binding and polymerization; % elongation, % (compound at 16.7 µg/mL); 0.66% of 150,000 active; poliovirus polymerase elongation, fluorescence polarization; active compounds read low; P03300; AID 588519; in the data active = % elongation below about 90%; also: some results filed as inactive read as strong as hits
# Target sequence (P03300 1749-2209 limits assumed): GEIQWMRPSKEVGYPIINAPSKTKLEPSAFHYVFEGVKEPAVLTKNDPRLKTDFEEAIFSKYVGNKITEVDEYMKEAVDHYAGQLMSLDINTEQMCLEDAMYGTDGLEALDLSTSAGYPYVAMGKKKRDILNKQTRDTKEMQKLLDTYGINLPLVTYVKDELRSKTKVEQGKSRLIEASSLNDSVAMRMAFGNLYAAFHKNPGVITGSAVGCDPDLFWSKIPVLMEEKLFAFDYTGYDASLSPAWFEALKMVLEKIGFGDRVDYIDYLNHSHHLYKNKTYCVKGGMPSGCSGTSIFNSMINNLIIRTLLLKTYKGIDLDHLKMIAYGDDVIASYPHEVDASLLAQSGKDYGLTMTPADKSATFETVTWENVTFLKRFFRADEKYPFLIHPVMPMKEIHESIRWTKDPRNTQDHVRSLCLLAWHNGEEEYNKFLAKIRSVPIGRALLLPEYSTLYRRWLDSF
# PV pol inh intensity – also measured in PV pol inh; calls as there; % elongation; measured here: total intensity read-out; formula for this scale not given here;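 total fluorescence in place of polarization; lower means less elongation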
# * = called active by the depositor. These rows are one share of the data, so the mix of outcomes need not match the whole.
Compound,PV pol inh,PV pol inh intensity
CCCCC1CCC(C(=O)N2CC(=O)Nc3ccc(Br)cc3C2c2ccc(F)cc2)CC1 (stereo not given),100,102
Cc1ccc(NC(=O)NCCc2c(C)nn(C)c2C)cc1Cl,105,99
COc1cccc(CN2C(=O)c3ccccc3C2C(=O)NCCc2ccc(OC)c(OC)c2)c1 (stereo not given),116,114
Cc1ccc(OCc2ccc(-c3nc(C#N)c(NCc4cccnc4)o3)o2)cc1,107,110
CCc1ccc(C2CC(=O)Oc3c2c(=O)n(C)c2ccccc32)cc1 (stereo not given),105,107
COc1ccc(Cl)cc1NC(=O)CSc1nc(-c2ccccc2)c2ccccc2n1,105,107
CCC(C)NC(=O)c1ccc2nc(Cc3ccc(OC)cc3)oc2c1 (stereo not given),100,102
CCOC(=O)C1CCN(C(=O)Cn2nc(CC)n3c(cc4sccc43)c2=O)CC1,100,108
COc1ccc(S(=O)(=O)NCCc2sc(-c3cccnc3)nc2C)c(F)c1,109,107
COc1cc(-c2cc(OC)c3c(C)oc(C)c3c(=O)c2)ccc1OC(=O)c1ccccc1F,116,124
Cc1ccc(NC(=O)c2oc3ccccc3c2NC(=O)c2cc3ccccc3o2)cc1,108,109
CCCNC(=O)c1cc2n(n1)CCCN(Cc1ccc(F)cc1)C2=O,108,108
COCCCn1c(=N)c(C(=O)NCc2cccnc2)cc2c(=O)n3cccc(C)c3nc21,114,116
COc1cccc(C(=O)Nc2cc3c(cc2C(=O)c2ccc(C)cc2)OCCO3)c1,106,107
COc1ccc(-c2nn3c(=O)cc(CN4CCN(C(=O)c5ccc(C(C)(C)C)cc5)CC4)nc3s2)cc1,110,115
CCN1CCN(c2csc3ccc(C)cc3c2=O)CC1,107,103
Cc1ccc(-c2noc(CSc3nnc(C)n3-c3ccc(C)cc3)n2)cc1,101,90
CCOC(=O)C(Cc1c[nH]c2ccccc12)NC(=O)COc1ccc(CC)cc1 (stereo not given),103,110
O=C(Nc1cc(-c2nc3ccccc3o2)ccc1Cl)c1ccc(N2CCCCC2)c([N+](=O)[O-])c1,106,107
COc1ccc(CNC(=O)CSc2nc(-c3ccc(OC)cc3)cc(C(F)(F)F)n2)cc1,105,106
CCn1c2c(c(=O)n3ncc(C(=O)Nc4cccc(Cl)c4C)c13)CN(Cc1ccc(OC)cc1)CC2,104,105
CCOC(=O)C1CCC(CN(Cc2ccc(Cl)cc2)S(=O)(=O)c2cccc(Cl)c2C)CC1 (stereo not given),108,101
Cc1cc(C)cc(NC(=O)CCc2nnc3n(CC(C)C)c(=O)c4ccccc4n23)c1,107,113
COc1cc2nc(Nc3cccc(C)c3)nc(N)c2cc1OC,102,105
COCCNc1ccc(-c2nc(-c3cccc(C)c3)no2)cc1[N+](=O)[O-],106,107
COC(=O)Cn1ccc2cc(S(=O)(=O)N3CCCCCC3)ccc21,105,107
Cc1ccc(C(=O)N(Cc2sccc2C)C2CCS(=O)(=O)C2)cc1 (stereo not given),112,111
COc1ccccc1-n1ncc2c(=O)[nH]c(SCC(=O)Nc3ccc(Cl)cc3)nc21,110,105
CCOC(=O)CSc1nc2c(sc3ccccc32)c(=O)n1CCO,108,113
COc1ccc(-c2nc(-c3ccccc3)c(-c3ccc(O)cc3)[nH]2)cc1,110,110
CC(C)c1ccc(Nc2c(-c3ccco3)nc3ccccn23)cc1,103,111
COc1ccc(OCCn2cc(C(=O)c3ccco3)c3ccccc32)cc1,109,112
COc1cc(Cl)c(C)cc1NC(=O)Cn1cnc2sc(C)c(S(=O)(=O)N3CCCCC3)c2c1=O,108,108
O=C(Nc1ccc(C(F)(F)F)cc1)c1cc(S(=O)(=O)NC2CCCCC2)ccc1F,113,118
O=C(NCCCN1CCOCC1)c1ccc2c(c1)N(Cc1cccc(Cl)c1)C(=O)c1ccccc1S2,110,107
Cc1cccc(N2CCN(C(=O)c3cccc(-n4c(C)nc5cccnc54)c3)CC2)c1C,106,99
CCOc1ccc(NC(=O)N(Cc2cn(CC)c3ccccc23)C2CCCCCC2)cc1,108,103
CCOc1ccc(S(=O)(=O)NCC(c2ccco2)S(=O)(=O)c2ccc(F)cc2)cc1 (stereo not given),102,102
COCCn1c(CNC(=O)c2ccccc2C)nc2cccnc21,101,111
CC(C)(C)CC(=O)Nc1nnc2n1CCS2,114,114
CCOC(=O)c1cc(-c2ccc(C)cc2)n(CCCC(=O)Nc2cc(C)ccc2C)c1,100,107
COc1ccc2c(c1)sc1ncc(C(=O)NCc3ccc(Cl)cc3)c(=O)n12,111,112
Cc1ccn2c(Nc3ccc4c(c3)OCCO4)c(-c3cccs3)nc2c1,110,110
Cc1cc(=O)n2nc(N(C)CC(=O)NCc3ccc(Cl)cc3)sc2n1,103,107
COc1ccc(C(CNC(=O)c2oc3ccccc3c2C)N2CCCCC2)cc1 (stereo not given),110,113
O=C(Nc1c(-c2ccc(F)cc2)nc2ccccn12)c1cccc(F)c1,102,101
O=C(COc1ccccc1Cl)Nc1ccccc1OCc1cc(=O)n2ccccc2n1,110,114
CCCNC(=O)C1CCC(Cn2c(=O)c3sccc3n(Cc3ccccc3F)c2=O)CC1 (stereo not given),107,111
CCc1ccccc1Nc1nc2ccccc2c2nncn12,108,105
Cc1ccccc1CNC(=O)C(C)N(c1ccccc1)S(C)(=O)=O (stereo not given),108,109
Cc1cc(N2CCCCC2)nc2ccc(NC(=O)c3cccc(Cl)c3)cc12,111,111
CCCCNC(=O)C1CCN(S(=O)(=O)c2ccc3c(ccn3CC)c2)CC1,111,97
COc1ccc2c(c1)c1c(c(=O)n(-c3cccc(C)c3)c(=O)n1Cc1cccc(Cl)c1)n2C,100,104
Cc1ccc2[nH]c3c(=O)n(CC(=O)N4CCCC(C)C4)ncc3c2c1 (stereo not given),112,108
CCC1CCc2nc3sc(C(=O)Nc4ccc(F)c(F)c4)c(N)c3cc2C1 (stereo not given),115,115
COc1cc(C)cc2oc(=O)c(CC(=O)NCCc3ccc(Cl)cc3)c(C)c12,110,95
COCCNc1ncnc2c1c(-c1ccccc1)cn2-c1ccc(C)c(Cl)c1,106,106
Cc1cc2oc(C(=O)N(Cc3ccccc3)C3CCS(=O)(=O)C3)cc(=O)c2cc1C (stereo not given),109,110
Cc1ccccc1NC(=O)CSc1cn(CC(=O)N2CCCC2)c2ccccc12,105,96
CC(C)c1ccc(S(=O)(=O)c2nnn3c2nc(N2CCN(C)CC2)c2sccc23)cc1,112,114

# New compounds follow
Compound,PV pol inh,PV pol inh intensity
O=C(NCc1cccc(Cl)c1)C1CCCN(c2nn3cc(-c4ccc(F)cc4)nc3s2)C1 (stereo not given),105,110
Cc1ccc(N2C(=O)CSC23C(=O)N(CC(=O)NCCc2ccccc2)c2ccccc23)cc1 (stereo not given),101,106
CCOc1ccc(C2CC(=O)Nc3c2c(=O)nc(SCc2ccccc2C)n3C)cc1OC (stereo not given),102,104
CCOC(=O)c1cccc(NC(=O)c2nn(-c3ccc(OC)cc3)c(=O)c3c2c2ccccc2n3C)c1,106,107
Cc1cccc(C(=O)NCCc2sc(-c3ccccc3)nc2C)c1,109,113
CCc1cnc2c(c1SCc1cc(OC)cc(OC)c1)c(=O)n(C)c(=O)n2C,109,110
Cc1cccc(N2CCN(S(=O)(=O)c3cc(C(=O)Nc4ccc(Oc5ccccc5)cc4)ccc3F)CC2)c1C,110,111
COc1cc(OC)cc(C(=O)NCc2ccc3c(c2)CCN3C(=O)c2ccccc2)c1,111,108
O=C(NCCc1nc2ccccc2n1Cc1ccc(Cl)cc1)c1ccccc1,102,102
COc1ccc(-c2nc3ccccc3n3c(-c4cccc(C)c4)c4c(=O)n(C)c(=O)n(C)c4c23)cc1,103,107
COc1cc(-c2cc3n(C)c(C)c(CCC(=O)NC4CCCCC4)c(=O)n3n2)cc(OC)c1OC,101,99
CCOC(=O)c1ccc(NS(=O)(=O)c2ccc3c(c2)OCCO3)cc1,104,109
Cc1ccc(Cn2c(CNS(=O)(=O)c3ccc(C(C)(C)C)cc3)nc3cccnc32)cc1,105,102
CCOc1ccc(-n2cc(-c3ccccc3)c3c(N4CCC(C)CC4)ncnc32)cc1,102,108
Cc1cc(N2CCN(C)CC2)nc2ccc(NC(=O)c3ccccc3F)cc12,99,95
Cc1cccc(C(=O)n2nc(-c3ccco3)nc2NCc2ccccc2)c1,107,110
COc1ccc(-c2nc3c4ccccc4n(CC(=O)Nc4cc(F)ccc4F)c(=O)n3n2)cc1,107,111
Cc1c2cnn(CC(=O)NCC(C)c3ccccc3)c(=O)c2c(C)n1Cc1cccc(Cl)c1 (stereo not given),111,115
Cc1ccc(-c2nc(-c3cc4cccc(OCc5ccc(F)cc5)c4oc3=O)no2)cc1,108,114
Cc1nnc2c3ccccc3nc(N3CCN(c4ccccc4)CC3)n12,107,105
Cc1ccc(N2CC(c3nnc(Cc4ccc(Cl)cc4)o3)CC2=O)cc1 (stereo not given),103,97
CC1CCCN(S(=O)(=O)c2cc3c(cc2Cl)NC(=O)CO3)C1 (stereo not given),104,109
CCOC(=O)CSc1nnc2n(-c3ccccc3)c(=O)c3c4c(sc3n12)CC(C(C)(C)C)CC4 (stereo not given),105,106
CC(C)(C)OC(=O)N1CCC(c2c(C(=O)Nc3ccc4c(c3)OCO4)cnn2-c2ccccc2)CC1,101,107
Cc1ccc(C)c(N2CCN(Cc3nnc(-c4ccc5c(c4)OCO5)o3)CC2)c1,108,112
Cc1ccc2occ(CC(=O)N3CCN(c4cccc(Cl)c4)CC3)c2c1,114,115
CN(C(=O)c1c2c(nc3ccccc13)C(=O)N(C1CCCCC1)C2)c1ccc(F)cc1,99,111
COc1ccccc1-c1nn2c(=O)cc(CN3CCN(S(=O)(=O)c4ccc(C)cc4)CC3)nc2s1,111,109
COc1ccc(-c2ccc(NS(=O)(=O)c3cccc(Cl)c3)cc2)nn1,106,106
Cc1ccc(Nc2nc3c(S(=O)(=O)c4ccccc4)nnn3c3ccc(Cl)cc23)c(C)c1,108,103

# Whole records as entered above. Order of values: PV pol inh	PV pol inh intensity
# `Cc1ccc(C(=O)N(Cc2sccc2C)C2CCS(=O)(=O)C2)cc1` (stereo not given) across the screens: 112	111
# `COc1ccc(OCCn2cc(C(=O)c3ccco3)c3ccccc32)cc1` across the screens: 109	112
# `CCc1cnc2c(c1SCc1cc(OC)cc(OC)c1)c(=O)n(C)c(=O)n2C` across the screens: 109	110
# `CC(C)c1ccc(Nc2c(-c3ccco3)nc3ccccn23)cc1` across the screens: 103	111
# `Cc1ccc(N2C(=O)CSC23C(=O)N(CC(=O)NCCc2ccccc2)c2ccccc23)cc1` (stereo not given) across the screens: 101	106

# Further structures follow.
Compound,PV pol inh,PV pol inh intensity
Cc1ccc(Cl)cc1NC(=O)c1oc2ccc(S(=O)(=O)N3CCCCCC3)cc2c1C,107,109
Cc1ccc(-c2cn3nc(N4CCC(C(=O)Nc5ccccc5C)CC4)sc3n2)cc1,108,114
COc1cc(OC)c(N(C)C(=O)c2c(C)oc3ncn(CC(C)C)c(=O)c23)cc1Cl,103,103
CCCOc1cccc(C2c3c(oc4cc(C)c(C)cc4c3=O)C(=O)N2CCCN2CCOCC2)c1 (stereo not given),109,110
CCCCNC(=O)C1CCN(c2nc3ccc(C)cc3[nH]2)CC1,110,115
Cc1ccc(C)c(Cn2c(=O)n(CCCC(=O)NCc3ccc4c(c3)OCO4)c(=O)c3sccc32)c1,107,109
COc1cc2nc(SCC(=O)Nc3ccc(F)cc3)n3nc(CCn4c(C)nc5ccccc54)nc3c2cc1OC,110,101
Cn1nccc1C(=O)NCc1ccc2c(c1)CCN2C(=O)c1ccc(F)cc1,103,106
CC1=C(C(=O)Nc2ccccc2)C(c2ccc(C)cc2)n2nc(SCc3ccccc3C)nc2N1 (stereo not given),114,117
CC1CCCN(Cc2c(O)ccc3c(=O)c(-c4ccccc4Cl)c(C(F)(F)F)oc23)C1 (stereo not given),103,106
CC1CCC(Nc2nc3c(-c4cccc(C(F)(F)F)c4)nnn3c3ccccc23)CC1 (stereo not given),110,110
COc1ccc(NC(=O)c2c(NCc3ccc(N(C)C)cc3)sc3c2CCC3)cc1,86*,87*
CN1C(=O)c2ccccc2Sc2ccc(NC(=O)c3ccc(C#N)cc3)cc21,113,116
CC(C)C1N=C2c3ccccc3N=C(SCC(=O)NCc3ccc(Cl)cc3)N2C1=O (stereo not given),106,109
Cc1ccc(CNC(=O)CN2C(=O)C3CCCCN3c3ccc(C(=O)N4CCCC4)cc32)cc1 (stereo not given),107,108
CCNC(=O)C1CCN(Cc2cc3ccccc3n2Cc2ccc(C)cc2)CC1,99,104
CSc1ccc(CCNC(=O)Cn2ncc3c([nH]c4ccccc43)c2=O)cc1,101,113
O=C(CSc1nc2c([nH]c3ccccc32)c(=O)n1-c1ccc(F)cc1)N1CCCCC1,105,107
CCOC(=O)c1cccc(NC(=O)C2COc3ccc(OC)cc3C2)c1 (stereo not given),106,107

# Rewritten with two lines to a compound: entries from further up
# Values run as follows: PV pol inh | PV pol inh intensity
> COc1ccc(NC(=O)c2c(NCc3ccc(N(C)C)cc3)sc3c2CCC3)cc1
 : 86* | 87*
> CCNC(=O)C1CCN(Cc2cc3ccccc3n2Cc2ccc(C)cc2)CC1
 : 99 | 104
> CC1CCC(Nc2nc3c(-c4cccc(C(F)(F)F)c4)nnn3c3ccccc23)CC1 (stereo not given)
 : 110 | 110
> COc1cc2nc(SCC(=O)Nc3ccc(F)cc3)n3nc(CCn4c(C)nc5ccccc54)nc3c2cc1OC
 : 110 | 101
